Screening data from PubChem BioAssay.
MITF inhib = inhibitors of MITF | TRPM1 promoter luciferase, luminescence, 24 h | inhibition, % (no concentration beside the values) | 37,000 compounds, 0.28% hits | AID 2240;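 active = most replicates at 85% or more, or half of them and the mean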;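 note: human melanocyte line stably carrying TRPM1 promoter luciferase reporter; 0% = vehicle wells and 100% = a positive control; the first replicate is given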
PD-1 reversal = activators reversing PD-1 mediated T-cell inhibition. AID 2316. activation, % (concentration not given with the values). primary human CD4 T cells, PD-L1 beads, CellTiter-Glo 96 h. 29,000 tested, under 10 active;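 active = replicate mean of 50% or more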;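 note: 0% = median vehicle wells and 100% = positive control; 100 nL library stock added to about 50 µL; numbers are from one replicate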
Shh pathway inh = Sonic Hedgehog pathway inhibition; Shh-LIGHT2 Gli-luciferase reporter, 30 h; inhibition, % (test concentration not listed); 22,000 compounds, 2.1% hits; AID 2313;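 active = replicate mean of 65% or more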;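 note: pathway switched on by Shh-conditioned medium diluted 1 in 25 in low serum; 100 nL library stock added to about 40 µL; 0% = median of neutral wells and 100% = positive control level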
YB-1 expression = YB-1 expression inhibition. U2OS, qRT-PCR YB-1 vs CDIP delta delta Cp, 16 h; active compounds read high; zero = DMSO, each unit about twofold. delta delta Cp (YB-1 minus CDIP) (concentration not given with the values). AID 434959. 30,000 compounds, 0.37% hits;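 active = delta delta Cp rounded down to an integer at or above 3, about 3 SD of DMSO wells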;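 note: higher means less YB-1 transcript or more CDIP transcript relative to DMSO; stock transfer was 100 nL into about 100 µL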
* marks the source's active call; other numbers are inactive results.

The opening 2 entries, ahead of the listing:
`Cc1sc2nc3c4ccccc4c(NCC4CCCO4)nn3c(=O)c2c1C` (configuration not stated) gave MITF inhib -5, PD-1 reversal 0.4 and YB-1 expression -0.31.
C[C@@H]1CN([C@H](C)CO)C(=O)c2cc(NC(=O)C3CC3)ccc2O[C@@H]1CN(C)C(=O)Nc1ccc2c(c1)OCO2 was read as MITF inhib -11, PD-1 reversal -1.1 and YB-1 expression 0.13.

Results, repeating the preview:
`Cc1sc2nc3c4ccccc4c(NCC4CCCO4)nn3c(=O)c2c1C` (configuration not stated) gave MITF inhib -5, PD-1 reversal 0.4 and YB-1 expression -0.31.
C[C@@H]1CN([C@H](C)CO)C(=O)c2cc(NC(=O)C3CC3)ccc2O[C@@H]1CN(C)C(=O)Nc1ccc2c(c1)OCO2 was read as MITF inhib -11, PD-1 reversal -1.1 and YB-1 expression 0.13.
`C[C@H]1CN([C@@H](C)CO)C(=O)c2cc(NS(=O)(=O)c3cccs3)ccc2O[C@@H]1CN(C)S(=O)(=O)c1cccs1` gave MITF inhib -20, PD-1 reversal -0.3, Shh pathway inh -27 and YB-1 expression 0.43.
C[C@@H]1CN([C@@H](C)CO)C(=O)Cc2cc(NC(=O)CCCCCC(=O)Nc3ccccc3N)ccc2O[C@@H]1CN(C)S(=O)(=O)c1ccc(Cl)cc1 was read as MITF inhib 14, PD-1 reversal -0.2 and YB-1 expression 0.31.
`Cc1onc(-c2ccccc2Cl)c1C(=O)NCc1nc(-c2ccccc2)no1` gave MITF inhib -3 and PD-1 reversal 0.5.
For CC(C)NC(=O)N(C)C[C@@H]1Oc2c(NC(=O)C3CCCCC3)cccc2C(=O)N([C@H](C)CO)C[C@@H]1C the results were MITF inhib 0, PD-1 reversal 1.8, Shh pathway inh -30 and YB-1 expression -0.84.
COc1ccc(C(C)C)cc1S(=O)(=O)NCc1ccccn1 was read as MITF inhib 6 and PD-1 reversal 0.2.
For C[C@@H]1CN([C@@H](C)CO)C(=O)c2cccc(NC(=O)C3CC3)c2O[C@@H]1CN(C)S(=O)(=O)c1ccc(F)cc1 the results were MITF inhib 0, PD-1 reversal -0.9, Shh pathway inh 26 and YB-1 expression -0.29.
`C[C@H]1CN([C@@H](C)CO)C(=O)Cc2cc(NC(=O)NC3CCCCC3)ccc2O[C@@H]1CN(C)CC1CC1` gave MITF inhib 15, PD-1 reversal 1.2, Shh pathway inh -29 and YB-1 expression -0.43.
Screening C[C@H](CO)N1C[C@H](C)[C@H](CN(C)S(C)(=O)=O)Oc2c(NS(=O)(=O)c3ccc(F)cc3)cccc2C1=O returned MITF inhib -7, PD-1 reversal 0.9, Shh pathway inh -2 and YB-1 expression -0.28.
C[C@H]1CN([C@@H](C)CO)C(=O)Cc2cc(NC(=O)NC3CCCCC3)ccc2O[C@@H]1CN(C)Cc1ccc(C(F)(F)F)cc1 was read as MITF inhib 33, PD-1 reversal -0.3, Shh pathway inh 19 and YB-1 expression -0.02.
Screening COc1ccc(OCCCSc2ncccn2)cc1 returned MITF inhib -104 and PD-1 reversal 0.0.
C[C@@H]1CN([C@@H](C)CO)C(=O)c2cc(NS(=O)(=O)c3ccc(Cl)cc3)ccc2O[C@H]1CN(C)CC1CC1 was read as MITF inhib -3, Shh pathway inh -14 and YB-1 expression 0.033.
For CNC[C@H]1Oc2ccc(NS(=O)(=O)c3cccs3)cc2CC(=O)N([C@@H](C)CO)C[C@H]1C the results were MITF inhib -10, PD-1 reversal 2.5, Shh pathway inh -28 and YB-1 expression -0.14.
`N#Cc1cc2c(nc1SCCS(=O)(=O)c1nc3ccccc3s1)CCCC2` gave MITF inhib -12 and PD-1 reversal -8.6.
`O=S(=O)(CCSc1ccccc1)c1ccccc1` gave MITF inhib -14, PD-1 reversal 0.5, Shh pathway inh -22 and YB-1 expression 0.24.
`C[C@@H]1CN([C@@H](C)CO)C(=O)c2cccc(NC(=O)c3ccc(-c4nccs4)cc3)c2O[C@@H]1CN(C)S(C)(=O)=O` gave MITF inhib -6, PD-1 reversal 0.0, Shh pathway inh 12 and YB-1 expression -0.028.
Screening O=C1CCCCC1C(=O)c1ccccc1 (configuration not stated) returned MITF inhib 3, PD-1 reversal 0.2 and YB-1 expression -0.42.
`Cc1noc(C)c1NC(=O)Nc1cccc2c1O[C@@H](CN(C)C(=O)Nc1cccc3ccccc13)[C@@H](C)CN([C@@H](C)CO)C2=O` gave MITF inhib 0, Shh pathway inh 31 and YB-1 expression -0.098.
`C[C@H]1CN([C@@H](C)CO)C(=O)c2cc(NC(=O)CCCN(C)C)ccc2O[C@@H]1CN(C)C(=O)NC1CCCCC1` gave MITF inhib 4, PD-1 reversal 1.8, Shh pathway inh 5 and YB-1 expression -0.22.

3 compounds drawn at random from those above, as already listed:
For CC(C)NC(=O)N(C)C[C@@H]1Oc2c(NC(=O)C3CCCCC3)cccc2C(=O)N([C@H](C)CO)C[C@@H]1C the results were MITF inhib 0, PD-1 reversal 1.8, Shh pathway inh -30 and YB-1 expression -0.84.
`Cc1onc(-c2ccccc2Cl)c1C(=O)NCc1nc(-c2ccccc2)no1` gave MITF inhib -3 and PD-1 reversal 0.5.
`C[C@@H]1CN([C@@H](C)CO)C(=O)c2cccc(NC(=O)c3ccc(-c4nccs4)cc3)c2O[C@@H]1CN(C)S(C)(=O)=O` gave MITF inhib -6, PD-1 reversal 0.0, Shh pathway inh 12 and YB-1 expression -0.028.

Remaining list, next part
For C[C@@H]1CN([C@@H](C)CO)C(=O)c2cc(NC(=O)CCC(F)(F)F)ccc2O[C@@H]1CN(C)Cc1ccc(C(F)(F)F)cc1 the results were MITF inhib 1, PD-1 reversal -0.3 and YB-1 expression 0.082.
`COc1ccc(S(=O)(=O)N(C)C[C@H]2OCCCC[C@@H](C)Oc3ccc(NS(=O)(=O)c4cccs4)cc3C(=O)N([C@H](C)CO)C[C@@H]2C)cc1` gave MITF inhib -1, Shh pathway inh 2 and YB-1 expression -17.
For COc1ccc(S(=O)(=O)Nc2ccc3c(c2)C(=O)N([C@H](C)CO)C[C@@H](C)[C@@H](CN(C)Cc2ccc(-c4ccccc4)cc2)O3)cc1 the results were MITF inhib 6, PD-1 reversal -0.1 and YB-1 expression -0.12.
For COc1ccc(S(=O)(=O)Nc2cccc3c2O[C@H](CN(C)C)[C@@H](C)CN([C@H](C)CO)C3=O)cc1 the results were MITF inhib 4, PD-1 reversal 3.5, Shh pathway inh -18 and YB-1 expression -0.16.
For Cc1ccc(S(=O)(=O)N(C)C[C@H]2Oc3ccc(NC(=O)NC4CCCCC4)cc3C(=O)N([C@@H](C)CO)C[C@H]2C)cc1 the results were MITF inhib -10, PD-1 reversal -1.7, Shh pathway inh -10 and YB-1 expression 0.49.
Screening Cc1noc(C)c1S(=O)(=O)Nc1ccc2c(c1)CC(=O)N([C@H](C)CO)C[C@H](C)[C@H](CN(C)Cc1ccccc1)O2 returned MITF inhib -9, PD-1 reversal -2.5, Shh pathway inh 2 and YB-1 expression 0.044.
Screening COc1ccc(S(=O)(=O)N(C)C[C@@H]2Oc3ccc(NC(=O)Cn4cnnn4)cc3C(=O)N([C@@H](C)CO)C[C@@H]2C)cc1 returned MITF inhib 5, PD-1 reversal 0.9 and YB-1 expression 0.45.
For COc1ccc(NC(=O)Nc2ccc3c(c2)C(=O)N([C@H](C)CO)C[C@@H](C)[C@@H](CN(C)C(=O)Nc2ccc(F)cc2)O3)cc1 the results were MITF inhib 5, PD-1 reversal -0.5, Shh pathway inh 13 and YB-1 expression -0.2.
C[C@@H]1CN([C@@H](C)CO)C(=O)c2cccc(NS(C)(=O)=O)c2O[C@H]1CN(C)S(=O)(=O)c1cccs1 was read as MITF inhib -13, PD-1 reversal 2.0, Shh pathway inh 38 and YB-1 expression -0.054.
For C[C@@H]1CN([C@@H](C)CO)C(=O)c2cc(NC(=O)Nc3ccc4c(c3)OCO4)ccc2O[C@@H]1CN(C)S(C)(=O)=O the results were MITF inhib -9, PD-1 reversal 1.9 and YB-1 expression 0.092.
Screening CCOc1ccc(/C=N/n2c(C)nc3ccccc3c2=O)cc1 returned MITF inhib -13, PD-1 reversal 0.6, Shh pathway inh -5 and YB-1 expression 0.47.
`C=CC1C(OC2OC(CO)C(O)C(O)C2O)OC=C(C(=O)OC)C1CC1CC(=O)CC(CC(=O)CCc2ccc(O)cc2)O1` (configuration not stated) gave MITF inhib 1, PD-1 reversal 0.3, Shh pathway inh -21 and YB-1 expression -0.066.
`CNC[C@@H]1Oc2c(NC(=O)C3CCCCC3)cccc2C(=O)N([C@H](C)CO)C[C@@H]1C` gave MITF inhib -11, Shh pathway inh -6 and YB-1 expression -0.28.
`CCOC(=O)CNC(=O)c1cc2nc(-c3ccc(Cl)s3)cc(C(F)(F)F)n2n1` gave MITF inhib 9 and PD-1 reversal -7.3.
Screening COc1ccc(NC(=O)Nc2ccc3c(c2)C(=O)N([C@H](C)CO)C[C@@H](C)[C@@H](CN(C)Cc2ccncc2)O3)cc1 returned MITF inhib -11, PD-1 reversal -0.4, Shh pathway inh 0 and YB-1 expression -0.25.
For CC(C)NC(=O)Nc1ccc2c(c1)CC(=O)N([C@H](C)CO)C[C@H](C)[C@H](CN(C)Cc1ccc3c(c1)OCO3)O2 the results were MITF inhib 0, PD-1 reversal 1.8, Shh pathway inh -12 and YB-1 expression -0.13.
Screening CCn1c(=NC(=O)c2ccc(S(=O)(=O)N(C)C)cc2)sc2ccccc21 returned MITF inhib -45, PD-1 reversal 0.4, Shh pathway inh -135 and YB-1 expression 0.31.
`Cc1ccc(S(=O)(=O)N(C)CC(=O)Nc2cccc(C#N)c2)cc1` gave MITF inhib -8 and PD-1 reversal 1.2.
Cc1cc(C)c(C)c(OCC(=O)NCc2cccnc2)c1 was read as MITF inhib 14 and PD-1 reversal -0.4.
`Cc1cc(C)c(NC(=O)CSc2nnc(-c3ccncc3)n2C)c(C)c1` gave MITF inhib -2 and PD-1 reversal 1.2.
C[C@@H]1CN([C@H](C)CO)C(=O)Cc2cc(NS(=O)(=O)c3ccccc3)ccc2O[C@@H]1CN(C)C(=O)Nc1ccc2c(c1)OCO2 was read as MITF inhib -1, PD-1 reversal -0.6, Shh pathway inh -18 and YB-1 expression -0.45.
`FC(F)(F)c1cccc(-n2c(Cn3nnc(N4CCOCC4)n3)n[nH]c2=S)c1` gave MITF inhib 0, PD-1 reversal 1.2 and YB-1 expression -0.005.
COc1ccc(S(=O)(=O)Nc2ccc3c(c2)C(=O)N([C@H](C)CO)C[C@H](C)[C@@H](CN(C)C(=O)Nc2cccc4ccccc24)OCCCC[C@@H](C)O3)cc1 was read as MITF inhib 8, Shh pathway inh -4 and YB-1 expression -0.19.
Screening COc1cc(/C=C/CO)ccc1O[C@@H]1O[C@H](CO)[C@@H](O)[C@H](O)[C@H]1O returned MITF inhib 1, PD-1 reversal 1.1, Shh pathway inh 2 and YB-1 expression -0.16.
N#CC(OC1OC(COC2OCC(OC(=O)/C=C/c3ccc(OC4OC(CO)C(O)C(O)C4O)cc3)C(O)C2O)C(O)C(O)C1O)c1ccccc1 (configuration not stated) was read as MITF inhib 1, PD-1 reversal 0.3, Shh pathway inh -14 and YB-1 expression -0.65.
Screening C[C@@H]1CN([C@H](C)CO)C(=O)Cc2cc(NC(=O)Nc3ccc(C(F)(F)F)cc3)ccc2O[C@H]1CN(C)Cc1ccncc1 returned MITF inhib -32, PD-1 reversal 0.6, Shh pathway inh -2 and YB-1 expression 0.14.
Screening C[C@@H]1CN([C@H](C)CO)C(=O)Cc2cc(NC(=O)CCN3CCOCC3)ccc2O[C@@H]1CN(C)C(=O)Nc1ccc(F)cc1 returned MITF inhib -13, PD-1 reversal -0.4, Shh pathway inh 19 and YB-1 expression -0.053.
For CCOC(=O)c1c(NC(=O)COc2ccc(Cl)cc2C)sc2c1CCC2 the results were MITF inhib -35 and PD-1 reversal 0.4.
`C[C@H]1CN([C@@H](C)CO)C(=O)c2cc(NS(=O)(=O)c3ccccc3)ccc2O[C@H]1CN(C)CC1CCCCC1` gave MITF inhib -23, PD-1 reversal 0.0, Shh pathway inh -6 and YB-1 expression -0.29.
Screening C[C@H]1CN([C@@H](C)CO)C(=O)c2cccc(NC(=O)C3CCOCC3)c2O[C@@H]1CN(C)Cc1ccc(C(F)(F)F)cc1 returned MITF inhib -18, Shh pathway inh -14 and YB-1 expression 0.75.
For COc1ccc(NC(=O)Nc2cccc3c2O[C@H](CN(C)S(=O)(=O)c2ccc(Cl)cc2)[C@@H](C)CN([C@@H](C)CO)C3=O)cc1 the results were MITF inhib -7, PD-1 reversal 2.8, Shh pathway inh -10 and YB-1 expression -0.087.
For COc1ccc(S(=O)(=O)Nc2ccc3c(c2)CC(=O)N([C@H](C)CO)C[C@@H](C)[C@@H](CN(C)CC2CCCCC2)O3)cc1 the results were MITF inhib 1, PD-1 reversal -1.3, Shh pathway inh -59 and YB-1 expression -0.029.
COc1ccc(NC(=O)N(C)C[C@H]2Oc3ccc(NC(=O)Nc4ccc(F)cc4)cc3C(=O)N([C@H](C)CO)C[C@@H]2C)cc1 was read as MITF inhib 2, PD-1 reversal 0.6, Shh pathway inh -4 and YB-1 expression 0.19.
`C[C@@H]1CN([C@@H](C)CO)C(=O)Cc2cc(NS(=O)(=O)c3ccccc3)ccc2O[C@@H]1CN(C)C(=O)NC1CCCCC1` gave MITF inhib -13, PD-1 reversal 1.5, Shh pathway inh -13 and YB-1 expression -0.042.

Only part of the results is shown (hit frequency here may not be typical).
